ID4 SMM = binds human ID4 protein on microarray; P47928; small molecule microarray, Flag-ID4 binding, fluorescence F/B; calls only; 31,000 compounds, 1.2% hits; AID 624137;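 active means spot signal over background at p below 0.07 in all four prints; compounds were printed on slides so no solution concentration is given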;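 further: a binder raises fluorescence above local background on the spot; about 2 pmol printed per array spot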
Target sequence (P47928 whole entry, looked up): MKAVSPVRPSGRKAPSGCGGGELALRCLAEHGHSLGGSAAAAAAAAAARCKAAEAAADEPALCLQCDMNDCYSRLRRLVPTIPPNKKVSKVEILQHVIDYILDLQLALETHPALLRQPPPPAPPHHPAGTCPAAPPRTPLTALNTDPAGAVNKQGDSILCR
Calls only; i = inactive; + = active, no number. These rows are one share of the data; the hit share may differ from the screen's.

Sample of the layout:
SMILES | ID4 SMM
CO[C@@H]1CN(C)C(=O)c2cc(NC(=O)Nc3ccccc3Cl)ccc2OC[C@@H](C)N(C)C[C@H]1C | i
Cc1cc(Cl)ccc1NC(=O)CSc1nnc(-c2cccs2)n1-c1ccccc1 | i
Cc1c(C(=O)Nc2sc3c(c2C(=O)NC2CCS(=O)(=O)C2)CCC(C)C3)oc2ccc(Cl)cc12 (stereo not drawn) | i
COC(=O)c1cc(OC)c(OC)cc1NC(=O)COc1ccc(Cl)cc1 | i
C[C@@H]1CN([C@H](C)CO)C(=O)c2cc(Br)cnc2O[C@@H]1CN(C)Cc1ccccn1 | i

The whole of this part, repeating the preview:
SMILES | ID4 SMM
CO[C@@H]1CN(C)C(=O)c2cc(NC(=O)Nc3ccccc3Cl)ccc2OC[C@@H](C)N(C)C[C@H]1C | i
Cc1cc(Cl)ccc1NC(=O)CSc1nnc(-c2cccs2)n1-c1ccccc1 | i
Cc1c(C(=O)Nc2sc3c(c2C(=O)NC2CCS(=O)(=O)C2)CCC(C)C3)oc2ccc(Cl)cc12 (stereo not drawn) | i
COC(=O)c1cc(OC)c(OC)cc1NC(=O)COc1ccc(Cl)cc1 | i
C[C@@H]1CN([C@H](C)CO)C(=O)c2cc(Br)cnc2O[C@@H]1CN(C)Cc1ccccn1 | i
CO[C@@H](CN(C)Cc1cc(F)ccc1F)[C@H](C)CN(C(=O)Nc1ccc(C(F)(F)F)cc1)[C@H](C)CO | i
Cc1ccc2oc(C(=O)Nc3sc4c(c3C(=O)NCc3ccco3)CCC4)c(C)c2c1 | i
O=C(COc1ccc(C(=O)Nc2ccc(F)cc2)cc1)Nc1ccccc1C(F)(F)F | i
C[C@H](CO)N1C[C@H](C)[C@@H](CN(C)C)Oc2cc(-c3ccc(F)cc3)ccc2S1(=O)=O | i
C[C@H]1CN([C@@H](C)CO)C(=O)c2cc(NC(=O)Cc3ccccc3)ccc2O[C@@H]1CN(C)C | i

Random excerpt: 7 entries already listed, in no set order.
SMILES | ID4 SMM
CO[C@@H]1CN(C)C(=O)c2cc(NC(=O)Nc3ccccc3Cl)ccc2OC[C@@H](C)N(C)C[C@H]1C | i
Cc1ccc2oc(C(=O)Nc3sc4c(c3C(=O)NCc3ccco3)CCC4)c(C)c2c1 | i
O=C(COc1ccc(C(=O)Nc2ccc(F)cc2)cc1)Nc1ccccc1C(F)(F)F | i
COC(=O)c1cc(OC)c(OC)cc1NC(=O)COc1ccc(Cl)cc1 | i
C[C@H]1CN([C@@H](C)CO)C(=O)c2cc(NC(=O)Cc3ccccc3)ccc2O[C@@H]1CN(C)C | i
C[C@H](CO)N1C[C@H](C)[C@@H](CN(C)C)Oc2cc(-c3ccc(F)cc3)ccc2S1(=O)=O | i
Cc1cc(Cl)ccc1NC(=O)CSc1nnc(-c2cccs2)n1-c1ccccc1 | i

The results go on.
SMILES | ID4 SMM
COc1ccc(NC(=O)c2ccccc2NC(=O)COc2ccc([N+](=O)[O-])cc2)cc1 | i
COCCNC(=O)C[C@H]1C=C[C@H](NC(=O)NC2CCCCC2)[C@@H](CO)O1 | i
CN(C)C(=O)C[C@H]1CC[C@@H](NC(=O)C2CCOCC2)[C@@H](CO)O1 | i
CCc1sc(-c2ccc(Cl)cc2)nc1C(=O)OC | i
COc1ccc(-c2nc3cc(C(C)C)ccc3o2)cc1NC(=O)COc1ccccc1C | i
CCCC#Cc1cnc2c(c1)C(=O)N([C@H](C)CO)C[C@H](C)[C@@H](CN(C)C(=O)c1ccccc1)O2 | i
COc1ccc(N(CC(=O)Nc2cccnc2)S(C)(=O)=O)c(OC)c1 | i
CCC(=O)N(C)C[C@H]1Oc2ncc(C#CCC3CCCC3)cc2C(=O)N([C@H](C)CO)C[C@@H]1C | i
Cc1cc(OCC(=O)Nc2cccc(NC(=O)c3cccc(Cl)c3)c2)ccc1Cl | i
O=C(C[C@H]1C[C@H]2c3cc(NC(=O)C4CCC4)ccc3O[C@H]2[C@H](CO)O1)NCc1cccc(F)c1 | i
C[C@H](CO)N1C[C@H](C)[C@H](CN(C)Cc2ccccc2)Oc2ncc(C3=CCCCC3)cc2C1=O | i
CCCN(C)C[C@H]1Oc2cc(C#CCN(C)C)ccc2S(=O)(=O)N([C@@H](C)CO)C[C@H]1C | i
N/C(=N\O)c1ccc(N2CCN(c3ncccc3C(F)(F)F)CC2)nc1 | i
C[C@H]1CN([C@@H](C)CO)C(=O)c2cc(-c3ccc(F)cc3)cnc2O[C@@H]1CN(C)CC1CCCC1 | i
COCC#Cc1ccc2c(c1)O[C@H](CN(C)C(=O)C1CCCCC1)[C@H](C)CN([C@H](C)CO)S2(=O)=O | i
COc1ccc(C(=O)Nc2ccc(C(=O)OCc3cccc([N+](=O)[O-])c3)cc2)cc1 | i
COC(=O)c1cccc(COC(=O)c2ccccc2NC(=O)c2ccco2)c1 | i
CC(C)NC(=O)N(C)C[C@@H]1Oc2cc(-c3ccccc3)ccc2S(=O)(=O)N([C@@H](C)CO)C[C@@H]1C | i
COC(=O)c1ccc(NC(=O)CSc2nc(-c3cccs3)cc(=O)[nH]2)cc1 | i
O=C(O)c1cccc(CSc2nnc(-c3ccco3)o2)c1 | +
COC(=O)c1c(NC(=O)CN(c2cccc(Br)c2)S(C)(=O)=O)sc2c1CCCC2 | i
COc1cc([C@@H]2c3cc4c(cc3[C@@H](O[C@@H]3O[C@@H]5CO[C@@H](C)O[C@H]5[C@H](O)[C@H]3O)[C@H]3COC(=O)[C@H]23)OCO4)cc(OC)c1O | i
CN(C)c1nc(N(C)C)nc(N(C)C)n1 | i
CO[C@@H]1CN(C)C(=O)c2cc(NC(=O)C3CC3)ccc2OC[C@@H](C)N(Cc2ccc(F)cc2)C[C@H]1C | i
COC(=O)c1ccccc1NC(=O)Cn1nc([N+](=O)[O-])c(Br)c1C | i
C[C@H]1CN([C@@H](C)CO)C(=O)c2cc(Br)cnc2O[C@H]1CN(C)Cc1ccccc1 | i
Cc1ccc2[nH]c(=S)n(C3CC4C=CC3C4)c(=O)c2c1 (stereo not drawn) | i
Cc1ccc(-n2c(Cn3ncc4ccccc4c3=O)n[nH]c2=S)cc1 | i
Cc1noc(C)c1NC(=O)N(C)C[C@H]1Oc2ncc(C3=CCCC3)cc2C(=O)N([C@H](C)CO)C[C@H]1C | i
CCCC#Cc1cnc2c(c1)C(=O)N([C@H](C)CO)C[C@H](C)[C@@H](CN(C)C(=O)Cc1ccccc1)O2 | i
CC(=O)Nc1ccccc1NC(=O)COc1ccc(Cl)cc1Cl | i
CCCN1CCN(c2ncnc3scc(C4COc5ccccc5O4)c23)CC1 (stereo not drawn) | i
Cc1ccc(-c2cc(C(=O)NCc3cccnc3)c3cc(Br)ccc3n2)cc1 | i
Cc1ccccc1-c1ccc2c(c1)O[C@H](CN(C)Cc1ccc(C(=O)O)cc1)[C@H](C)CN([C@@H](C)CO)S2(=O)=O | i
c1ccc(CN(CCN(Cc2ccccn2)Cc2ccccn2)Cc2ccccn2)nc1 | i
CCOc1ccc(NC(=O)N(Cc2cn(C)c3ccccc23)C2CCCCC2)cc1 | i
Cc1nc(SCCC(=O)Nc2ccccc2C#N)nc2cc3c(cc12)CCC3 | i
O=C(Cn1ccc([N+](=O)[O-])n1)Nc1cc(F)ccc1F | i
Cc1cc(C)cc(N(CC(=O)O)S(=O)(=O)c2ccccc2)c1 | i
CCn1c(SCC(=O)Nc2ccc(C)c(C)c2)nnc1-c1ccncc1 | i
C[C@H]1CN([C@@H](C)CO)C(=O)c2cc(-c3ccccc3F)cnc2O[C@H]1CN(C)C(=O)C1CCC1 | i
CN(Cc1nc(-c2cccc([N+](=O)[O-])c2)no1)S(=O)(=O)c1ccc(Cl)cc1 | i
CS(=O)(=O)N(CC(=O)Nc1ccc(Br)cc1)c1cccc(C(F)(F)F)c1 | i
Cc1ccccc1-c1cnc2c(c1)C(=O)N([C@H](C)CO)C[C@@H](C)[C@@H](CN(C)C(=O)CN(C)C)O2 | i
CC1(C)CC(n2c(SCC(N)=O)nc3c(c2=O)C2(CCCCC2)Cc2ccccc2-3)CCO1 (stereo not drawn) | i
COc1cccc(S(=O)(=O)NCC(=O)N2CCCCC2C)c1 (stereo not drawn) | i
O=C(NCC(O)c1ccccc1)c1cccc(S(=O)(=O)N2CCOCC2)c1 (stereo not drawn) | i
Cc1cc(C)c2c(=O)[nH]c(SCC(=O)c3ccc(F)c(C)c3)nc2n1 | i
COc1ccccc1NC(=O)CN(C)S(=O)(=O)c1cc(C)ccc1OC | i
Cn1c(SCC(=O)Nc2sc3c(c2C#N)CCCC3)nnc1-c1ccc(Br)cc1 | i

Further structures follow:
SMILES | ID4 SMM
CCCn1c2ccccc2c2nnc(SCC(=O)N3c4ccccc4Sc4ccccc43)nc21 | i
C/C=C/c1cnc2c(c1)C(=O)N([C@H](C)CO)C[C@@H](C)[C@@H](CN(C)C(=O)c1cccc(F)c1)O2 | i
CC(C)CC(C(=O)Oc1ccc([N+](=O)[O-])cc1)N1C(=O)c2ccccc2C1=O (stereo not drawn) | i
C[C@@H]1CN([C@@H](C)CO)C(=O)c2cc(Br)cnc2O[C@@H]1CN(C)C(=O)c1ccc(F)cc1 | i
C[C@@H]1CN([C@@H](C)CO)S(=O)(=O)c2ccc(C#CC3CCCC3)cc2O[C@@H]1CN(C)C(=O)Nc1cc(F)ccc1F | i
Cc1ccc2c(c1)C(O)(CC(=O)c1ccccc1[N+](=O)[O-])C(=O)N2 (stereo not drawn) | i
COc1cccc(S(=O)(=O)N[C@H]2CC[C@@H](CC(=O)NC3CCC3)O[C@H]2CO)c1 | i
CO[C@@H](CN(C)Cc1ccc2c(c1)OCO2)[C@H](C)CN(C(=O)c1ccccc1)[C@H](C)CO | i
O=C(COc1ccc([N+](=O)[O-])cc1)Nc1ccc2oc(-c3cccc(Cl)c3)nc2c1 | i
COc1ccc(OC)c(-c2cc(C(=O)NCCc3ccccc3OC)c3ccccc3n2)c1 | i
O=C(CSc1nnc2sc3ccccc3n12)Nc1ccc(Cl)cc1 | i
Cc1ccc(OC(=O)N(C)C[C@@H]2OCc3ccccc3-c3ccccc3C(=O)N([C@H](C)CO)C[C@H]2C)cc1 | i
COc1cccc(-c2cnc3c(c2)C(=O)N([C@@H](C)CO)C[C@H](C)[C@@H](CN(C)Cc2ccccc2)O3)c1 | i
COc1cccc(C(=O)Nc2ccc3c(c2)OC[C@@H](C)NC[C@@H](C)[C@H](OC)CN(C)C3=O)c1 | i
Cn1c(SCC(=O)NCCO)nc2ccccc2c1=O | i
C[C@@H]1CN([C@H](C)CO)S(=O)(=O)c2ccc(C#CC3CC3)cc2O[C@H]1CN(C)Cc1ccccc1 | i
COc1ccccc1S(=O)(=O)N[C@H]1C=C[C@@H](CC(=O)NCc2cccc(F)c2)O[C@H]1CO | i
Cc1ccc(NC(=O)CSc2nnc(-c3cccnc3)n2-c2ccc(Br)cc2)cc1F | i
O=C(C[C@@H]1CC[C@@H](NS(=O)(=O)c2ccccc2F)[C@@H](CO)O1)NCCCN1CCOCC1 | i
Cn1c(CN2CCOCC2)nnc1SCC(=O)Nc1ccc2c(c1)OCCO2 | i
O=C(Cn1cnc2sc3c(c2c1=O)CCCC3)Nc1ccccc1Br | i
O=C1c2ccccc2S(=O)(=O)N1CC(O)Cn1c2ccc(Cl)cc2c2cc(Cl)ccc21 (stereo not drawn) | i
O=C(Nc1ccc(I)cc1C(=O)NCc1cccnc1)c1ccco1 | i
CC(C)C#Cc1cnc2c(c1)C(=O)N([C@H](C)CO)C[C@H](C)[C@@H](CN(C)C(=O)CCN1CCCCC1)O2 | i
O=C(CSc1nc(-c2ccc(Cl)cc2)cc(C(F)(F)F)n1)Nc1ccc(F)cc1 | i
O=C(C[C@@H]1CC[C@@H](NC(=O)C2CCOCC2)[C@@H](CO)O1)NCC1CCCCC1 | i
C[C@@H]1CN([C@H](C)CO)C(=O)c2cccc(N(C)C)c2O[C@H]1CN(C)Cc1ccc2c(c1)OCO2 | i
NC(=O)CSc1nnc(-c2cccnc2)s1 | i
COCC#Cc1ccc2c(c1)O[C@@H](CN(C)C(=O)c1ccccc1F)[C@@H](C)CN([C@@H](C)CO)S2(=O)=O | i
CNC(=O)C1=C[C@H](c2ccc(C(=O)OC)cc2)C[C@H](OCCCCO)O1 | i
O=C(C[C@H]1CC[C@H](NS(=O)(=O)c2ccc(F)cc2)[C@@H](CO)O1)NCc1ccc(Cl)c(Cl)c1 | i
C[C@H](CO)N1C[C@H](C)[C@@H](CN(C)C(=O)c2cccnc2)Oc2cc(C#CC3CC3)ccc2S1(=O)=O | i
C[C@@H]1CN([C@H](C)CO)C(=O)c2cc(C#Cc3cccnc3)cnc2O[C@H]1CN(C)Cc1ccccc1 | i
O=C(NC=Nc1cccnc1)c1cccc(COCC(F)(F)F)c1 | i
O=C(CC1NCCNC1=O)Nc1ccc(Oc2ccccc2)cc1 (stereo not drawn) | i
Cc1ccccc1-c1cnc2c(c1)C(=O)N([C@@H](C)CO)C[C@@H](C)[C@@H](CN(C)C(=O)CC1CC1)O2 | i
CCc1c(O)nc(SCC(=O)Nc2ccc(Cl)cc2Cl)n(-c2ccccc2)c1=O | i
Cc1cc(OCC(=O)Nc2ccc(O)cc2C(=O)O)cc(C)c1Cl | i
CC(C)CC#Cc1cnc2c(c1)C(=O)N([C@H](C)CO)C[C@H](C)[C@H](CN(C)Cc1cccc(F)c1)O2 | i
O=C(N[C@H]1CC[C@H](CC(=O)N2CCc3ccccc3C2)O[C@@H]1CO)C1CCC1 | i
CO[C@@H](CN(C)Cc1ccc(-c2ccccn2)cc1)[C@@H](C)CN(C(=O)Nc1ccc(F)cc1)[C@H](C)CO | i
Cc1ccc(N(CC(=O)Nc2c(C)n(C)n(-c3ccccc3)c2=O)S(C)(=O)=O)cc1Cl | +
COC(=O)C(CC#Cc1ccc2c(c1)[C@]1(C(=O)N2)[C@H](c2ccccc2OCCO)N2[C@H](c3ccccc3)[C@H](c3ccccc3)OC(=O)[C@H]2[C@@H]1C(=O)NC[C@H](O)c1ccccc1)C(=O)OC | i
O=C(Nc1cccnc1)C1CC(c2cccc(Br)c2)=NO1 (stereo not drawn) | i
COc1ccc(-c2cc(C(F)F)n3ncc(C(=O)Nc4cccc(NC(C)=O)c4)c3n2)cc1 | i
NN(CCO)C(=S)NCc1ccc(Cl)cc1 | i

Screening results as filed in PubChem BioAssay.
